FGF22 binding: binders of recombinant human FGF22 by thermal shift. calls only at 9.99 µM. 1.5% of 340,000 active. SYPRO orange fluorescence; percent of sucrose octasulfate shift, DMSO zero. AID 651658;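 active = melting point raised past a set limit in the mean and every replicate; three in four hits are not shown here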
Target sequence (Q9HCT0 whole entry, looked up): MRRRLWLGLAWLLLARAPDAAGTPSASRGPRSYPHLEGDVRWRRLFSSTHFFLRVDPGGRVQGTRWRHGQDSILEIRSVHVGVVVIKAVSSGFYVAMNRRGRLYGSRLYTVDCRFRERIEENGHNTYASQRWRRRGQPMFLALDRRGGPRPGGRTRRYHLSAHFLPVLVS
T cruzi repl: T. cruzi replication inhibition | T. cruzi beta-gal in NIH3T3, luminescence, 90 h | inhibition, % (test concentration not listed) | 1.4% of 300,000 active | AID 1885;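 active = mean inhibition across valid replicates above about 55%, limit read from the data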;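 also: signal also drops with host cell toxicity which is not excluded here; 0% = plate median of DMSO wells and 100% = zero luminescence signal; higher percent means less beta-gal luminescence so fewer parasites; stock transfer was 50 nL into about 50 µL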
Beta apoptosis: beta cell apoptosis inhibition; INS-1E cytokine-induced death, ATP luminescence, 48 h; percent of positive-control rescue, neutral wells zero; protection from apoptosis, % (test concentration not listed); 0.8% of 300,000 active; AID 435005;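 active = all replicates at 75% or more, or half of them and the mean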;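 also: 0% = cytokine-treated negative control wells and 100% = positive control rescue; higher means more ATP so stronger rescue from cytokine killing; wells of about 40 µL received 100 nL stock; the first replicate is given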
MLL AF4-AF9 inh: MLL-AF4/AF9 protein interaction inhibition; P42568; AlphaScreen, biotin-AF4 peptide binding to FLAG-AF9; inhibition, % at 10 µM; 0.47% of 350,000 active;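 active = every replicate reaching a set inhibition limit, whatever the replicate mean, cut at about 25% in these data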;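 also: 0% = plate neutral control median and 100% = total signal loss; the record names both 10 and 1 µM as test concentration; the first replicate is given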
Target sequence (P42568 whole entry, looked up): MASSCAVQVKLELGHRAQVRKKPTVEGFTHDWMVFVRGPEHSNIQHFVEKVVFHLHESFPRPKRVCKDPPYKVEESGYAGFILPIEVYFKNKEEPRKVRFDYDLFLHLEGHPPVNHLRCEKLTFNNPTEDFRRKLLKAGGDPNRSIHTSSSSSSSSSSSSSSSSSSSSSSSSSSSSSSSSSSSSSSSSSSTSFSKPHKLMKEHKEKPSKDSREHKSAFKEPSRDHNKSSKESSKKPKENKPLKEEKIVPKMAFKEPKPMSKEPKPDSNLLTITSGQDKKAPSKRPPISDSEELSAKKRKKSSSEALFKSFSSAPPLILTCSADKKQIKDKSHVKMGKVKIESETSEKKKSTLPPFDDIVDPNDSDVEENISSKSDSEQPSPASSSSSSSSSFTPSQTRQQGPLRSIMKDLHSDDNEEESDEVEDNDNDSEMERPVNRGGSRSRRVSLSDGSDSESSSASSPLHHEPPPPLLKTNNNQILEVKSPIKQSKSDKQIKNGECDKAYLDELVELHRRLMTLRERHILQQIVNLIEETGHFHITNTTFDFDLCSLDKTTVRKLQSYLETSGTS
Bfl-1 A1 inh: inhibitors of the anti-apoptotic protein A1, read as caspase activation; MEF A1-2A-BIM cells, Caspase-Glo 3/7 luminescence, 3 h; percent of clofoctol response, vehicle zero; caspase activation, % (test concentration not listed); 0.066% of 330,000 active; AID 2462;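 active = over half of replicate activation scores above 10%, or exactly half above 10 with the replicate mean above 10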;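 also: wells of about 30 µL received 50 nL stock; many hits fall short of the cut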
rRNA inh HTS: selective bacterial rRNA inhibition in E. coli; E. coli WT GFP vs humanized-ribosome RFP mutants, fluorescence, 24 h; hits give low values; DMSO median 0, no signal -100; GFP signal change (wild-type ribosome), % (test concentration not listed); 1.6% of 350,000 active; AID 720706;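 active = significant combined selectivity score with lowered wild-type GFP, culture density cut under 30%, mutant RFP and density less affected; inactive = any of these conditions unmet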; also: one replicate is shown; some compounds called inactive have numbers as strong as hits
E coli growth: inhibitors of Escherichia coli growth; OD600, 23 h; hits give low values; AID 1053175; 0.21% of 330,000 active; OD600 absorbance (test concentration not listed);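 active = OD600 absorbance below the run mean of sample wells minus 3.6 SD, in any replicate, cut at about 0.56 in these data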;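 also: stock transfer was 300 nL into about 60 µL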
UCH37 inh: blocks the human deubiquitinase UCH37. Q9Y5K5. purified proteasome/UCH37, Ub-AMC cleavage fluorescence. inhibition, % (concentration not given with the values). 0.33% of 330,000 active;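 active = mean of two replicates above 20%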;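 also: 0% = compound-free wells with enzyme and 100% = wells lacking proteasome; stock transfer was 100 nL into about 20 µL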
Target sequence (Q9Y5K5 whole entry, looked up): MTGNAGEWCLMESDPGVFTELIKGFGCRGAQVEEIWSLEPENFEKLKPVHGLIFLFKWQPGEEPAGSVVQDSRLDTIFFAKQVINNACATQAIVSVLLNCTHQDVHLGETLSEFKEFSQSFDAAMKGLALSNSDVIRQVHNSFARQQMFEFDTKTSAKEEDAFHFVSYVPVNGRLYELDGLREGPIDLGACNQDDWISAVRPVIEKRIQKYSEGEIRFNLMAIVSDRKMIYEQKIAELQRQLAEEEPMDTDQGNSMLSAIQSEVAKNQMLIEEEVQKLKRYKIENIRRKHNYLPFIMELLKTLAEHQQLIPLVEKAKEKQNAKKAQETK
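assay system = human UCH37 enzyme supplied as purified proteasome complex | amount = proteasome at 0.15 nM in the dispensed enzyme solution | schedule = 30 min compound-proteasome preincubation then 25 min substrate reaction, room temperature | measured by = fluorescence, ex 355 nm, em 460 nm | benchmarks = no-proteasome wells (full inhibition) and compound-free wells (no inhibition)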
rRNA inh HTS OD600: further read-out of rRNA inh HTS, marked with its call; OD600 change, %; measured here: OD600 growth;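 optical density of the mix in the first replicate; 0 = DMSO median and -100 = no signal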
rRNA inh HTS RFP: second read-out of rRNA inh HTS, no call of its own (marks repeat the call); RFP signal change, %; measured here: RFP humanized mutant strains;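 first replicate; 0 = DMSO median and -100 = no signal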
Numbers without * were called inactive; i = inactive; x = not tested or not shown; & = joins results of further samples. A portion of the library (hit frequency here may not be typical).

SMILES	FGF22 binding	T cruzi repl	Beta apoptosis	MLL AF4-AF9 inh	Bfl-1 A1 inh	rRNA inh HTS	rRNA inh HTS OD600	rRNA inh HTS RFP	E coli growth	UCH37 inh
C/C(=C\C=C(C#N)C#N)c1cc(C#N)c(N)o1	i	-8	x	16	x	14	-7	58	x	4.9
NS(=O)(=O)c1ccc(NC(=O)c2c(Cl)cccc2Cl)cc1	i	11	-2	1.7	0.1	11	7	-3.9	0.66	-0.1
Cc1ccc(C)c(NC(=O)CSc2nc3[nH]ncc3c(=O)[nH]2)c1	i	-18	x	-7.3	0.1	x	x	x	0.65	1.0
Cn1c(-c2cc(Cl)ccc2O)nc2c1c(=O)[nH]c(=O)n2Cc1ccccc1	i	19	3	-0.4	0.9	7	8	1.4	0.72	-8.8
CCCc1nn2c(N)c(/C=C3\C=Nc4ccccc43)c(=O)nc2s1	i	10&-4	5&0	-0.4&-1.1	-0.5&-0.2	-18&4	-16&15	2.1&7.5	0.68&0.7	-1.9&-0.9
O=C(Nc1ccccc1C(=O)Nc1ccc2c(c1)OCO2)c1cccs1	x	1	3	x	-0.1	x	x	x	0.75	2.7
COC(=O)c1nc(NNC(=O)c2ccccc2)sc1-c1ccccc1	x	1	0	-0.1	-0.8	9	11	5.8	0.69	0.9
CCn1c(SCC(=O)NCCc2ccccc2)nc2c([nH]c3ccccc32)c1=O	i	17	14	-1.2	0.7	7	3	-2.3	0.7	3.8
COc1ccc2c(C)cc3n[nH]c(=S)n3c2c1	i	-12	-10	-3.7	0.5	-2	-7	3.1	0.66	-42
Cc1cc2cc3c(cc2nc1SCC(=O)OC(C)C)OCCO3	x	-1	x	x	0.8	x	x	x	0.73	4.0
COc1ccc(C(=O)COC(=O)/C=C/c2ccco2)cc1F	i	x	0	0.9	-1.2	13	14	1.5	0.65	-0.7
COc1cc(CN2CCN(c3cc(C)ccc3C)CC2)cc([N+](=O)[O-])c1O	i	9	-7	4.5	-0.2	-15	-7	-4.3	0.72	7.9
CCOc1ccc2oc(C(=O)OCC(=O)N3CCCC(C)C3)c(C)c2c1 (centres undefined)	i	x	-4	-4.2	0.0	-7	-19	-0.5	0.59	-59
O=C(NCCN1C(=O)S/C(=C/c2cccnc2)C1=O)C1CC(=O)N(Cc2ccccc2)C1 (centres undefined)	i	-8	-3	2.8	0.2	-6	-3	-2.0	0.67	6.1
C=CCn1nc(-c2ccccc2)c(N2CCCCC2)cc1=O	i	13	-8	-3.1	-0.7	-21	-28	-2.8	0.73	7.4
COc1ccc(NC(=O)c2ccc(N3C(=O)C4CC=C(C)CC4C3=O)cc2)c(OC)c1 (centres undefined)	i	14	2	0.1	0.4	4	8	-1.6	0.66	1.4
O=C(Cn1c(=O)c2cccn2c2ccccc21)Nc1cc(F)ccc1F	i	19	0	-7.2	0.8	-12	-16	5.5	0.71	-1.2
COC(CNC(=O)c1ccc2c(c1)nc(C)n2-c1cc(C)cc(C)c1)OC	i	9	-2	0.1	0.0	-1	1	-0.5	0.68	3.5
Cc1ccsc1C(=O)OCc1cc(=O)n2ccsc2n1	i	x	-12	-4.5	0.7	3	3	-2.4	0.65	1.4
CC1=C(C(=O)N2CCCCC2)C(c2cccs2)C2=C(CCCC2=O)N1 (centres undefined)	x	-17	0	x	0.3	x	x	x	0.73	-18

Three compounds out of the list above, arranged by their value in MLL AF4-AF9 inh, low to high:
Structure,FGF22 binding,MLL AF4-AF9 inh,rRNA inh HTS,rRNA inh HTS OD600,rRNA inh HTS RFP,E coli growth,UCH37 inh
COc1ccc2c(C)cc3n[nH]c(=S)n3c2c1,i,-3.7,-2,-7,3.1,0.66,-42
COc1ccc(NC(=O)c2ccc(N3C(=O)C4CC=C(C)CC4C3=O)cc2)c(OC)c1 (centres undefined),i,0.1,4,8,-1.6,0.66,1.4
NS(=O)(=O)c1ccc(NC(=O)c2c(Cl)cccc2Cl)cc1,i,1.7,11,7,-3.9,0.66,-0.1

(list continues)
SMILES	FGF22 binding	T cruzi repl	Beta apoptosis	MLL AF4-AF9 inh	Bfl-1 A1 inh	rRNA inh HTS	rRNA inh HTS OD600	rRNA inh HTS RFP	E coli growth	UCH37 inh
COc1ccc(/C=C(\C#N)C(=O)OCC(=O)NCc2ccccc2OC)cc1	i	-5	-7	-43	-0.2	6	7	0.5	0.73	-11
Cc1ccc(CSCC(=O)NCCc2ccccc2)cc1	i	6	-2	-30	-1.1	-7	-6	5.5	0.72	5.0
CCCCOC(=O)c1cc(C)nc2ccc(Br)cc12	x	13	-3	x	0.2	x	x	x	0.69	3.2
O=C(C1CCN(S(=O)(=O)N2CCC3(CC2)OCCO3)CC1)N1CCN(Cc2ccccc2)CC1	x	-12	-3	x	0.2	x	x	x	0.68	2.5
Cc1cc(C)cc(NC(=O)OCCN2CCN(Cc3ccccc3)CCC2=O)c1	i	5	0	6.0	0.3	10	5	6.1	0.69	0.9
Oc1ccc(Br)cc1/C=N/n1c(COc2ccccc2)n[nH]c1=S	i	3	-19	-0.3	-0.2	4	13	4.9	x	x
Nc1cccc(Nc2nc(OC(C(F)(F)F)C(F)(F)F)nc(OC(C(F)(F)F)C(F)(F)F)n2)c1	x	3	26	x	-1.1	x	x	x	0.7	-0.4
CCCn1nnnc1NCc1ccc(N2CCCC2)cc1	x	20	-10	x	-1.0	x	x	x	0.73	0.3
CON/C=N/C(=S)Nc1ncc(C(F)(F)F)cc1Cl	i	4	1	-0.2	-0.1	8	16	5.8	0.67	4.4
CN(CC(=O)Nc1nc2ccccc2s1)S(=O)(=O)c1ccc(Br)cc1	x	28	0	x	-0.4	x	x	x	0.66	6.2
CCOC(=O)C1CCN(C(c2ccc(OC)c(OC)c2)c2sc3nc(C)nn3c2O)CC1 (centres undefined)	i	4	3	-2.1	0.2	-4	-7	-7.2	0.78	7.1
CCn1c(=O)[nH]c2cc(Cl)c(Cl)cc21	i	x	-1	-0.7	-0.1	-31	-46	-11	0.66	3.2
Nc1c(C(=O)O)sc2nc(-c3ccccc3)cc(-c3ccc(Cl)cc3)c12	i	4	-2	-1.1	0.9	-50	-73	-16	0.63	3.2
S=C(NCc1ccncc1)Nc1ccccc1	i	-12	5	0.0	-0.2	16	9	-0.4	0.69	4.5
CCCCC(=O)Nc1ccc(C(=O)N2CCN(c3ccccc3OC)CC2)cc1	x	-10	-10	x	0.1	x	x	x	0.74	3.1
CC(=O)Nc1ccc(NC(=O)C(NS(=O)(=O)c2ccc3c(c2)OCCO3)C(C)C)cc1 (centres undefined)	i	x	-1	-3.3	1.4	6	7	-1.1	0.72	-0.1
CCOC(=O)c1c(Cc2cccc(Cl)c2)c[nH]c1C	i	8	-3	5.2	-0.1	-36	-31	-7.1	0.66	3.9
CCCNC(=O)c1ccc(N2CCC3(CC2)CC(c2ccccc2)=NO3)c(NC(=O)Cc2ccc(F)cc2)c1	i	14	10	2.4	-0.4	0	7	0.1	0.72	0.4
O=C(CSC(=S)N1CCCC1)N1CCN(S(=O)(=O)c2ccccc2F)CC1	i	-8	-2	-3.8	0.0	-2	-6	-0.2	0.66	1.9
CC(OC(=O)c1ccc(-n2cnnn2)cc1)C(=O)Nc1ccc(F)c(F)c1F (centres undefined)	i	x	-5	-4.8	0.6	6	6	-1.5	0.66	-1.6
CC(C)=CCC/C(C)=C/CNC(=O)C[C@H]1C[C@H](C(=O)N2CCCCC2)[C@@]2(C)c3[nH]c4cc(-c5ccco5)ccc4c3CCN2C1=O	i	x	x	2.2	x	15	15	49	0.74	-8.5
CCOC(=O)c1sc2nc(COC(=O)c3c(F)cccc3F)[nH]c(=O)c2c1C	i	-5	-9	-1.2	0.5	17	0	-0.1	0.69	-7.0
CCOC(=O)NN1C(=O)c2ccccc2NC1C (centres undefined)	i	-3	-6	-0.5	0.9	13	17	2.2	0.68	i
CCC(=O)Nc1ccc(Cl)c(NC(=O)c2cccc(OC)c2)c1	i	-1	-1	-0.4	0.6	3	-2	1.9	0.68	3.5
CCOC(=O)c1ccc(NC(=O)C2=C(C)Nc3nc(CCCO)nn3C2c2cccc(C)c2)cc1 (centres undefined)	i	-12	-2	0.3	0.0	-1	7	-3.2	0.76	-0.4
COCCCNC(=O)C[C@H]1C[C@H](C(=O)N2CCCCC2)[C@@]2(CCc3ccccc3)c3[nH]c4ccc(Cl)cc4c3CCN2C1=O	i	x	x	-0.8	x	13	15	2.3	0.7	2.8
N#C/C(=C\Nc1ccc2c(c1)OCCO2)c1nc(-c2ccccc2)cs1	i	9	-1	-0.9	-0.2	6	10	0.3	0.69	-5.7
O=C(COc1ccccc1F)NCC(c1ccco1)N1CCCC1 (centres undefined)	i	-5	-6	2.0	0.2	14	12	2.7	0.7	1.9
Cc1onc(-c2ccccc2)c1C(=O)Nc1ccon1	x	-11	2	x	0.5	x	x	x	0.72	2.2
Cc1cccc(N2C(=O)C=CC2=O)c1	i	x	x	-1.3	x	-1	8	-3.6	0.66	-0.2
O=C(c1cc2cccc([N+](=O)[O-])c2oc1=O)N1CCOCC1	i	4	-2	x	0.0	4	6	-3.8	0.65	3.5
CCCCc1ccc(-c2c(C#N)c(N)nc3c2CCCC3)s1	x	8	-8	x	-0.5	x	x	x	0.76	-60
CCc1ccc(-c2cc(N)n(-c3ccccc3)n2)cc1	i	9	x	8.2	x	-11	-1	-2.8	0.7	0.7
Cn1c(N)c(C(=O)c2cc(-c3ccncc3)nc3ccccc23)c(=O)n(C)c1=O	i	19	3	-1.1	0.0	18	20	0.2	0.7	4.3
O=C(NCCC1CCCCN1S(=O)(=O)c1cccs1)C(=O)Nc1cccc(F)c1 (centres undefined)	x	10	-6	0.1	-0.4	11	6	1.4	x	x
CCOC(=O)C1=C2NC(=O)c3ccccc3N2C(=O)C1	i	-13	0	-4.2	0.9	18	11	2.0	0.7	0.6
O=C(NC(=S)NCCC1=CCCCC1)c1ccccc1Br	i	5	-1	-0.4	0.1	-38	-54	-1.5	x	x
COC(=O)c1cn(-c2cccc(C)n2)cn1	i	-15	-4	-1.6	1.0	7	4	-3.0	0.68	2.5
Cc1csc(Sc2ccc([N+](=O)[O-])cc2C(=O)OCC(=O)NC(=O)NC(C)(C)C)n1	x	5	-13	x	-1.2	x	x	x	0.79	1.1
COC(=O)C1CSC(C(=O)OC)N1C(=O)CN1CC(C)OC(C)C1 (centres undefined)	x	-6	-8	x	0.0	x	x	x	0.65	-0.8

Overlap with the part before: 2 compounds, then new ones.
SMILES	FGF22 binding	T cruzi repl	Beta apoptosis	MLL AF4-AF9 inh	Bfl-1 A1 inh	rRNA inh HTS	rRNA inh HTS OD600	rRNA inh HTS RFP	E coli growth	UCH37 inh
Cc1csc(Sc2ccc([N+](=O)[O-])cc2C(=O)OCC(=O)NC(=O)NC(C)(C)C)n1	x	5	-13	x	-1.2	x	x	x	0.79	1.1
COC(=O)C1CSC(C(=O)OC)N1C(=O)CN1CC(C)OC(C)C1 (centres undefined)	x	-6	-8	x	0.0	x	x	x	0.65	-0.8
Cc1c(/C(O)=C2/C(=O)C(=O)N(CCN3CCOCC3)C2c2cccnc2)cnn1-c1ccccc1 (centres undefined)	x	16	-2	x	-0.6	x	x	x	0.76	22*
Brc1ccc(N=NNc2ccccc2)cc1	i	6	x	3.6	-0.5	-3	3	-3.5	x	x
Cc1ccc(-c2nnc(Nc3ccc4c(c3)nc(C)n4C)c3ccccc23)cc1	x	30	9	x	-0.3	-59	-83	-21	0.6	-3.0
COC(=O)C(=O)/C=C(\O)c1c(C)cc(C)cc1C	i	4	-2	-0.6	1.6	7	1	-0.1	0.65	8.4

Bioassay records: PubChem BioAssay, several laboratories
